Screening results deposited in PubChem by ICCB-Longwood Screening Facility, Harvard Medical School.
Mtb MenB inh – M. tuberculosis MenB inhibitors, primary screen, biochemical, absorbance; inhibition, %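 (about 12 µg/mL by stock and volumes)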; 100,000 tested, 0.43% active; MenB enzyme assay, absorbance read-out; some hits fall short of the stated cut; 1,4-dihydroxy-2-naphthoyl-CoA synthase (Mycobacterium tuberculosis (strain ATCC 25618 / …;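 active means mean of two replicates above 30%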;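 further: 0% = no compound and 100% = wells with inactive enzyme; the first replicate is given; strong numbers were not always called active; inactives centre near -10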
MbtI inh – MbtI salicylate synthase inhibitors, primary screen, biochemical, fluorescence intensity; purified MbtI enzyme, fluorescence intensity read-out; inhibition, %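 (about 17 µg/mL by stock and volumes)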; 100,000 tested, 0.89% active; AID 493033, 2011;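 active means above 50% in both replicates, above 80% if mildly self-fluorescent; inactive means the rest, strongly fluorescent compounds included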;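 further: 0% = mean of negative and 100% = mean of positive controls; one replicate is shown; some compounds called inactive have numbers as strong as hits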
Target sequence (P9WFX0 whole entry, looked up): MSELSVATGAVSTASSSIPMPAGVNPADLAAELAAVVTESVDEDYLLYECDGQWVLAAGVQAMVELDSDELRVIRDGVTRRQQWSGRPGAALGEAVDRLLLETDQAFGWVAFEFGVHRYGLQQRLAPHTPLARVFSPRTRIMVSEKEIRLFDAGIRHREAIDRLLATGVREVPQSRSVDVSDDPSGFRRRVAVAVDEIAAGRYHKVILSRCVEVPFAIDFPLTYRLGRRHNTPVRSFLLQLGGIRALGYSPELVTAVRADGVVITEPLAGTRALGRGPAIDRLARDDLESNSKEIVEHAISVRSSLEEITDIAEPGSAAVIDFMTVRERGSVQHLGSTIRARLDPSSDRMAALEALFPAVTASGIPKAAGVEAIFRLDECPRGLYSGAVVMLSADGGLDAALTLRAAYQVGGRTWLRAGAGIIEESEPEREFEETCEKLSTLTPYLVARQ
PV pol inh – poliovirus RdRp elongation inhibitors, primary screen, biochemical, fluorescence polarization, total intensity. Genome polyprotein (Poliovirus type 1 (strain Mahoney)), P03300. poliovirus polymerase elongation; stronger effect = lower value. % elongation, % (compound at 16.7 µg/mL). 150,000 tested, 0.66% active. AID 588519, 2011; in the data active means % elongation below about 90%; further: some results filed as inactive read as strong as hits
Target sequence (P03300 1749-2209 limits assumed): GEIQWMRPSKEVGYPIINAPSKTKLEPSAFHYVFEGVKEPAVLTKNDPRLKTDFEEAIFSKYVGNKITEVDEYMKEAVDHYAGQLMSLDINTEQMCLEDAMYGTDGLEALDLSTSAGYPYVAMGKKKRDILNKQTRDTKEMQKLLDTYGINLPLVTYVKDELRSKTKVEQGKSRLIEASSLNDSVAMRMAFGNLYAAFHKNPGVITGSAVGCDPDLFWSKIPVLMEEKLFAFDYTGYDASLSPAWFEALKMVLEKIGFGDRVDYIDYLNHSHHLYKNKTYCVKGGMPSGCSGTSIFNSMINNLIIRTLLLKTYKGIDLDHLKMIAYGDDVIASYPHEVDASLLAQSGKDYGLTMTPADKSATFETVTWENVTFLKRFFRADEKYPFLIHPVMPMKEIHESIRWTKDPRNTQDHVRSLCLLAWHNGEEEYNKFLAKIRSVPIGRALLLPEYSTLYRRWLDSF
PV pol inh intensity – recorded beside PV pol inh, whose call it bears; % elongation; measured here: total intensity read-out; formula for this scale not given here;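 total fluorescence in place of polarization; lower means less elongation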
* = called active by the depositor. Not a hit list (roughly 1.7% active in at least one column).

How did Fc1cccc(CN2CCc3c([nH]c4ccccc34)C2)c1 do in these assays?
Mtb MenB inh: -110.8; MbtI inh: 0.1; PV pol inh: 102.0; PV pol inh intensity: 97.0

How did CN(CC(=O)NC1CCCC1)S(=O)(=O)c1ccc2[nH]c3c(c2c1)CCCC3 do in these assays?
Mtb MenB inh: -5.5; MbtI inh: -26.8; PV pol inh: 101.0; PV pol inh intensity: 101.0

What do the screens show for `CN(C)S(=O)(=O)c1ccc(C(=O)OCCn2cnc3c2c(=O)n(C)c(=O)n3C)cc1`?
Mtb MenB inh: -29.8; MbtI inh: -5.9; PV pol inh: 106.0; PV pol inh intensity: 106.0

What do the screens show for `COc1ccc(CN(C)CC(O)COC2CCCc3ccccc32)cc1` (configuration not stated)?
Mtb MenB inh: -29.9; MbtI inh: -3.5; PV pol inh: 104.0; PV pol inh intensity: 107.0

How did CCON1C(=O)NC(c2cc(F)ccc2C)(C(F)(F)F)C1=O (configuration not stated) do in these assays?
Mtb MenB inh: -7.1; MbtI inh: -73.7; PV pol inh: 101.0; PV pol inh intensity: 102.0

What do the screens show for `Cc1ccc(NC(=O)Cc2coc3ccc(C(C)C)cc23)cc1`?
Mtb MenB inh: -20.9; MbtI inh: -5.2; PV pol inh: 102.0; PV pol inh intensity: 102.0

Results for COc1cc2c(cc1OC)C(C)N(C(=O)CCN1C(=O)C3C4C=CC(C4)C3C1=O)CC2 (configuration not stated) ?
Mtb MenB inh: -13.5; MbtI inh: -6.0; PV pol inh: 104.0; PV pol inh intensity: 109.0

How did Cc1cccc(Nc2nnc(SCc3ccccc3C#N)s2)c1 do in these assays?
Mtb MenB inh: -18.2; MbtI inh: 14.6; PV pol inh: 105.0; PV pol inh intensity: 111.0

Results for COc1ccc(NC(=O)CN(C)C(=O)C2=NN(C3CCS(=O)(=O)C3)C(=O)CC2)cc1 (configuration not stated) ?
Mtb MenB inh: -11.4; MbtI inh: -0.8; PV pol inh: 103.0; PV pol inh intensity: 98.0

Results for CCC(=O)Nc1ccc(-c2csc(NCCN(CC)CC)n2)cc1 ?
Mtb MenB inh: -8.3; MbtI inh: inactive; PV pol inh: 100.0; PV pol inh intensity: 107.0

How did O=C(NN=C1CCCCC1)c1ccccc1 do in these assays?
Mtb MenB inh: -29.8; MbtI inh: -15.6; PV pol inh: 99.0; PV pol inh intensity: 101.0

How did Nc1nc(SCC(=O)N2CCNC2=O)nc2sc3c(c12)CCCCC3 do in these assays?
Mtb MenB inh: -16.1; MbtI inh: 22.1; PV pol inh: 100.0; PV pol inh intensity: 103.0

How did O=C(NCc1ccco1)c1ccc(Cn2c(=O)c3ccccc3n(Cc3ccccc3F)c2=O)cc1 do in these assays?
Mtb MenB inh: 14.7; MbtI inh: 1.6; PV pol inh: 99.0; PV pol inh intensity: 103.0

What do the screens show for `Nc1nnc(-c2ccco2)o1`?
Mtb MenB inh: -24.7; MbtI inh: 102.3; PV pol inh: 103.0; PV pol inh intensity: 108.0

How did CCC(CO)NC(=O)c1snnc1C (configuration not stated) do in these assays?
Mtb MenB inh: -0.4; MbtI inh: -10.0; PV pol inh: 101.0; PV pol inh intensity: 103.0

How did CCSc1nn2c(=O)cc(COc3ccc(CC)cc3)nc2s1 do in these assays?
Mtb MenB inh: 10.3; MbtI inh: 7.2; PV pol inh: 99.0; PV pol inh intensity: 105.0

How did O=C1NCC(O)=C1C=Nc1ccc(C2CCCCC2)cc1 do in these assays?
Mtb MenB inh: -15.5; MbtI inh: 12.2; PV pol inh: 105.0; PV pol inh intensity: 107.0

What do the screens show for `CCc1ccc(CNC(=O)c2ccc(CSCc3ccc(C)cc3)o2)cc1`?
Mtb MenB inh: -18.0; MbtI inh: 4.1; PV pol inh: 102.0; PV pol inh intensity: 107.0

Results for CC(C)C(NC(=O)c1cccs1)C(=O)Nc1nc2ccccc2s1 (configuration not stated) ?
Mtb MenB inh: -35.8; MbtI inh: 8.4; PV pol inh: 100.0; PV pol inh intensity: 102.0

How did Cc1[nH]n(CCc2ncc(-c3ccccc3)s2)c(=O)c1C1=NCCCCC1 do in these assays?
Mtb MenB inh: -2.2; MbtI inh: 9.1; PV pol inh: 98.0; PV pol inh intensity: 103.0

Results for O=C(OCc1nnc(-c2ccc(Cl)cc2)o1)C1CCN(c2ccc(C(F)(F)F)cn2)CC1 ?
Mtb MenB inh: -50.2; MbtI inh: 9.3; PV pol inh: 102.0; PV pol inh intensity: 104.0

What do the screens show for `CCCN(Cc1nnc(-c2ccco2)o1)C(=O)c1nn(-c2ccccc2)nc1C`?
Mtb MenB inh: 7.3; MbtI inh: 11.9; PV pol inh: 100.0; PV pol inh intensity: 105.0

Results for C=CCN1C(=S)NC(C)(C)C=C1C ?
Mtb MenB inh: 3.9; PV pol inh: 107.0; PV pol inh intensity: 108.0

What do the screens show for `c1ccc(-c2nnc(-c3ccccc3)nn2)cc1`?
MbtI inh: 11.8; PV pol inh: 100.0; PV pol inh intensity: 105.0

How did CC(C)(C)c1cc(C(=O)NCc2ccco2)n(Cc2ccc(F)cc2)n1 do in these assays?
Mtb MenB inh: -13.6; PV pol inh: 101.0; PV pol inh intensity: 103.0

How did CCN1CCN(Cc2coc3ccccc3c2=O)CC1 do in these assays?
Mtb MenB inh: 8.9; MbtI inh: 9.3; PV pol inh: 101.0; PV pol inh intensity: 103.0

How did COc1ccc(CC(=O)NC2CCN(CC(=O)Nc3ccc4c(c3)CCC4)CC2)cc1OC do in these assays?
Mtb MenB inh: 7.1; MbtI inh: -0.2; PV pol inh: 100.0; PV pol inh intensity: 100.0

What do the screens show for `CN(Cc1ccccc1)C(=O)c1ccc2c(c1)S(=O)(=O)N=C1CCCCCN12`?
Mtb MenB inh: -22.0; MbtI inh: -2.5; PV pol inh: 100.0; PV pol inh intensity: 96.0

What do the screens show for `CN(C(=O)C1CC(c2ccc(F)cc2)=NO1)c1ccccc1` (configuration not stated)?
Mtb MenB inh: -26.0; MbtI inh: -8.1; PV pol inh: 104.0; PV pol inh intensity: 103.0

What do the screens show for `N#CC1=C(N)N(c2sc3c(c2C#N)CCCC3)C2=C(CCC2)C1(C(F)(F)F)C(F)(F)F`?
Mtb MenB inh: -58.9; PV pol inh: 103.0; PV pol inh intensity: 109.0

Five compounds out of the list, arranged by formula weight, low to high:
Results for C=CCN1C(=S)NC(C)(C)C=C1C ?
Mtb MenB inh: 3.9; PV pol inh: 107.0; PV pol inh intensity: 108.0

What do the screens show for `c1ccc(-c2nnc(-c3ccccc3)nn2)cc1`?
MbtI inh: 11.8; PV pol inh: 100.0; PV pol inh intensity: 105.0

How did CC(C)(C)c1cc(C(=O)NCc2ccco2)n(Cc2ccc(F)cc2)n1 do in these assays?
Mtb MenB inh: -13.6; PV pol inh: 101.0; PV pol inh intensity: 103.0

What do the screens show for `CCc1ccc(CNC(=O)c2ccc(CSCc3ccc(C)cc3)o2)cc1`?
Mtb MenB inh: -18.0; MbtI inh: 4.1; PV pol inh: 102.0; PV pol inh intensity: 107.0

What do the screens show for `CN(Cc1ccccc1)C(=O)c1ccc2c(c1)S(=O)(=O)N=C1CCCCCN12`?
Mtb MenB inh: -22.0; MbtI inh: -2.5; PV pol inh: 100.0; PV pol inh intensity: 96.0

(next part)
Results for CC(N)c1ccc(C(=O)O)o1 (configuration not stated) ?
Mtb MenB inh: -12.1; MbtI inh: -3.4; PV pol inh: 102.0; PV pol inh intensity: 103.0

Results for N#CC(C(=O)c1ccc(S(=O)(=O)N2CCCCC2)cc1)c1nc2ccccc2c(=O)[nH]1 (configuration not stated) ?
Mtb MenB inh: -25.9; MbtI inh: 14.9; PV pol inh: 102.0; PV pol inh intensity: 100.0

What do the screens show for `C[n+]1ccc(CCc2cc[n+](C)cc2)cc1`?
Mtb MenB inh: 13.2; MbtI inh: -16.2; PV pol inh: 106.0; PV pol inh intensity: 113.0

How did Nc1sc2c(c1C(=O)c1cccs1)CCCC2 do in these assays?
Mtb MenB inh: -20.9; MbtI inh: 91.4; PV pol inh: 104.0; PV pol inh intensity: 113.0

How did C=CCN=C1NN=C(c2ccc(Cl)cc2)C(C)S1 (configuration not stated) do in these assays?
Mtb MenB inh: -11.4; MbtI inh: -2.6; PV pol inh: 103.0; PV pol inh intensity: 110.0

What do the screens show for `CCSc1nc2ccccc2c(=O)n1C(C)C`?
Mtb MenB inh: -5.8; MbtI inh: -3.0; PV pol inh: 101.0; PV pol inh intensity: 102.0

What do the screens show for `CCOC(=O)CSc1nc2c(c(=O)[nH]1)C1(CCCC1)Cc1ccccc1-2`?
Mtb MenB inh: -31.7; MbtI inh: 68.3; PV pol inh: 101.0; PV pol inh intensity: 105.0

Results for CCCn1c(N2CCN(C(=O)/C=C/C(=O)O)CC2)nc2ccccc21 ?
Mtb MenB inh: -1.2; MbtI inh: -11.6; PV pol inh: 99.0; PV pol inh intensity: 99.0

Results for COc1cc(OC)cc(OCC(O)Cn2ccnc2)c1 (configuration not stated) ?
Mtb MenB inh: -0.2; PV pol inh: 105.0; PV pol inh intensity: 98.0

What do the screens show for `Cc1ccc(C2=NS(=O)(=O)N(C)C(C(=O)N3CCC(C)CC3)=C2)cc1`?
Mtb MenB inh: -6.3; MbtI inh: -29.6; PV pol inh: 101.0; PV pol inh intensity: 100.0

What do the screens show for `N#CC1CN(Cc2cccs2)CN(Cc2cccs2)C1`?
Mtb MenB inh: -5.1; MbtI inh: -17.1; PV pol inh: 103.0; PV pol inh intensity: 96.0

How did O=C1CSCC(=O)N1c1ccc(Cl)cc1 do in these assays?
Mtb MenB inh: 11.4; MbtI inh: 4.0; PV pol inh: 93.0; PV pol inh intensity: 86.0

Results for CCC(=O)NCC(c1cccs1)N1CCOCC1 (configuration not stated) ?
MbtI inh: -6.8; PV pol inh: 97.0; PV pol inh intensity: 97.0

How did O=C(CN1CCN(c2cccc(Cl)c2)CC1)NCCc1ccccc1 do in these assays?
Mtb MenB inh: -43.4; MbtI inh: -11.9; PV pol inh: 107.0; PV pol inh intensity: 101.0

How did NS(=O)(=O)c1ccc(NC(=O)Nc2ccccc2)cc1 do in these assays?
Mtb MenB inh: -18.2; MbtI inh: -9.9; PV pol inh: 103.0; PV pol inh intensity: 105.0

Results for O=C(/C=C/c1ccc(Cl)cc1)NCCCn1ccnc1 ?
Mtb MenB inh: -17.6; MbtI inh: 1.9; PV pol inh: 102.0; PV pol inh intensity: 107.0

Results for Cc1ccc(-c2nnc(SCN3C(=O)c4ccccc4C3=O)o2)cc1C ?
Mtb MenB inh: 5.3; MbtI inh: 6.0; PV pol inh: 100.0; PV pol inh intensity: 102.0

Results for O=C(NC1CC1)C1CCN(C(=O)NCc2ccccc2)CC1 ?
Mtb MenB inh: -45.5; MbtI inh: -8.5; PV pol inh: 106.0; PV pol inh intensity: 101.0

What do the screens show for `CC(C)N(Cc1nc(-c2ccccc2)no1)C(=O)CCN1C(=O)c2ccccc2C1=O`?
Mtb MenB inh: -32.2; MbtI inh: -4.2; PV pol inh: 100.0; PV pol inh intensity: 103.0

Results for O=C(CCCc1ccccc1)NC1CC1 ?
Mtb MenB inh: 8.1; PV pol inh: 107.0; PV pol inh intensity: 108.0

Results for CC(C)OCc1cc(CN2CCN(C)CC2)c(O)c2ncccc12 ?
Mtb MenB inh: -30.1; MbtI inh: -2.1; PV pol inh: 106.0; PV pol inh intensity: 105.0

Results for COC(=O)c1ccc(NC(=O)COC(=O)C2CCN(S(=O)(=O)c3cccs3)CC2)cc1 ?
Mtb MenB inh: -4.5; MbtI inh: -1.6; PV pol inh: 101.0; PV pol inh intensity: 100.0

Results for CC1=Nn2c(Cn3nnc4ccccc43)nnc2SC1 ?
Mtb MenB inh: -4.0; MbtI inh: -5.3; PV pol inh: 104.0; PV pol inh intensity: 110.0

Results for COc1ccc(-c2c(C)[nH]n3c(=O)c(Cc4ccccc4)c(C)nc23)cc1 ?
Mtb MenB inh: -14.6; MbtI inh: -110.7; PV pol inh: 102.0; PV pol inh intensity: 102.0

What do the screens show for `CCCn1c(SCC(=O)NCCc2ccccc2)nc(O)cc1=O`?
Mtb MenB inh: -116.5; MbtI inh: -10.2; PV pol inh: 101.0; PV pol inh intensity: 101.0

How did N#C/C(=C\c1[nH]c2ccccc2c1O)C(N)=NCCc1ccccc1 do in these assays?
Mtb MenB inh: -8.1; MbtI inh: 15.8; PV pol inh: 118.0; PV pol inh intensity: 120.0

How did CCOC(=O)c1cc(C)n(-c2cccc(F)c2C#N)n1 do in these assays?
Mtb MenB inh: -22.8; MbtI inh: 3.0; PV pol inh: 105.0; PV pol inh intensity: 106.0

What do the screens show for `COC(=O)CSc1nnc(-c2ccccc2)n1C`?
Mtb MenB inh: -13.2; MbtI inh: -8.3; PV pol inh: 104.0; PV pol inh intensity: 99.0

What do the screens show for `Cc1nn(-c2ccccc2)c2sc(C(=O)NCCCN3CCOCC3)cc12`?
Mtb MenB inh: -20.2; MbtI inh: 107.7; PV pol inh: 98.0; PV pol inh intensity: 101.0

What do the screens show for `O=C1CC2CS(=O)(=O)CC2N1c1ccc(Oc2ccccc2)cc1` (configuration not stated)?
Mtb MenB inh: 1.7; PV pol inh: 105.0; PV pol inh intensity: 106.0

How did Cc1cc(C)nc(SCC(=O)OCC(=O)Nc2cc(C)nn2-c2ccccc2)n1 do in these assays?
Mtb MenB inh: 11.8; MbtI inh: 1.8; PV pol inh: 100.0; PV pol inh intensity: 108.0
